Assay outcomes: PubChem BioAssay, several laboratories
MLL AF4-AF9 inh = MLL-AF4/AF9 protein interaction inhibition; inhibition, % at 10 µM; AID 651704; P42568; 350,000 compounds, 0.47% hits; AlphaScreen, biotin-AF4 peptide binding to FLAG-AF9;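 active = every replicate reaching a set inhibition limit, whatever the replicate mean, cut at about 25% in these data; inconclusive = mean inhibition reaches that limit but some replicates miss it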;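 note: 0% = plate neutral control median and 100% = total signal loss; the record names both 10 and 1 µM as test concentration; the first replicate is given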
RanGTP-Impb inh = inhibitors of RanGTP-importin-beta interaction, primary screen, biochemical, FRET, CFP-Ran, YFP-importin-beta, homogeneous; cell-free CFP-Ran/YFP-importin-beta FRET ratio; inhibition, % (test concentration not listed); 300,000 compounds, 1.1% hits; AID 2216;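 active = most replicates above 15%; inconclusive = exactly half above 15%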;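 note: 0% = DMSO wells and 100% = Ran loaded with GDP instead of GTP; wells of about 40 µL received 100 nL stock; the first replicate is given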
Vif A3G = HIV-1 Vif–A3G interaction blockers – biochemical, TR-FRET, GST-Vif 1-94, biotin-A3G peptide, dose response retest, primary screen (AID 1117319); one-dose inhibition, %; IC50 in µM for titrated hits; TR-FRET GST-Vif / biotin-A3G peptide binding; higher % means a stronger effect; test concentration not given here; strong numbers were not always called active; 260,000 compounds, 0.57% hits;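 active = above the screen mean plus three standard deviations and confirmed in dose response; inconclusive = results disagree or hit not tested in dose response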;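 note: Vif residues 1-94 fused to GST binding biotinylated APOBEC3G peptide 110-148; 0% = full assay without inhibitor and 100% = GST in place of GST-Vif; retest series ran down from 100 µM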
UCH37 DUB inh = inhibitors of human deubiquitinating enzyme UCH37. purified proteasome/UCH37, Ub-AMC cleavage fluorescence. 330,000 compounds, 0.33% hits. AID 588478. inhibition, % (concentration not given with the values). Q9Y5K5;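 active = mean of two replicates above 20%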;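 note: 0% = compound-free wells with enzyme and 100% = wells lacking proteasome; stock transfer was 100 nL into about 20 µL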
Target sequence (Q9Y5K5 whole entry, looked up): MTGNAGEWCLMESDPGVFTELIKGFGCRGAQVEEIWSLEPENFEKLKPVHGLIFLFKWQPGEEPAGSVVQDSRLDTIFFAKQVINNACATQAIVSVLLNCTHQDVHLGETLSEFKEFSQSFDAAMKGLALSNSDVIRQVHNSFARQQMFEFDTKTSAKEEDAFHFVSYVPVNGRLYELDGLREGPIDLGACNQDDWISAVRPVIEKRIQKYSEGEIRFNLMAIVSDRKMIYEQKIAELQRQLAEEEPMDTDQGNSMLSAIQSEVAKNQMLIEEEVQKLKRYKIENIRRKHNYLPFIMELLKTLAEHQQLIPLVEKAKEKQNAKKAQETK
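Assay system: Proteasome-bound UCH37. Buffer or medium: pH 7.4 Tris-HCl (50 mM) with ovalbumin, ATP-MgCl2, DTT. Incubation: 30 min preincubation with enzyme, 25 min cleavage at room temperature. Measured by: fluorescence, ex 355 nm, em 460 nm. Read-out basis: percent inhibition. Control set: wells without proteasome as full block, compound-free enzyme plus substrate as uninhibited.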
Ecoli growth = inhibitors of Escherichia coli growth; OD600 absorbance (test concentration not listed); 330,000 compounds, 0.21% hits; OD600, 23 h; active compounds read low;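 active = OD600 absorbance below the run mean of sample wells minus 3.6 SD, in any replicate, cut at about 0.56 in these data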;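 note: stock transfer was 300 nL into about 60 µL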
FGF22 binding = binders of recombinant human FGF22 by thermal shift; Q9HCT0; SYPRO orange fluorescence; percent of sucrose octasulfate shift, DMSO zero; calls only at 9.99 µM; 340,000 compounds, 1.5% hits; AID 651658;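 active = melting point raised past a set limit in the mean and every replicate; inconclusive = no clear call; three in four hits are not shown here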
Target sequence (Q9HCT0 whole entry, looked up): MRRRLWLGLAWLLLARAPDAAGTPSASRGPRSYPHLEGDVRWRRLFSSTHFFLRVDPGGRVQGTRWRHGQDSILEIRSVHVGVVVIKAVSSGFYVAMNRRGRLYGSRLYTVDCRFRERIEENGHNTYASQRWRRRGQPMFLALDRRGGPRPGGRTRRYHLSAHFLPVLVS
HNF4A DNA FP = change in binding of human HNF4 alpha to DNA; P41235; HNF4a-FITC DNA binding, fluorescence polarization, 1 h; activity change, % at 10 µM; 360,000 compounds, 0.3% hits; AID 1224865; in the data active = activity change above about 30%, passing the limit was not always enough;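 note: controls were the assay level and a saturating level of protein; the project sought stronger binding though the title names inhibitors; some compounds called inactive have numbers as strong as hits; positive values seem to mean higher polarization but the record does not say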
Target sequence (P41235 whole entry, looked up): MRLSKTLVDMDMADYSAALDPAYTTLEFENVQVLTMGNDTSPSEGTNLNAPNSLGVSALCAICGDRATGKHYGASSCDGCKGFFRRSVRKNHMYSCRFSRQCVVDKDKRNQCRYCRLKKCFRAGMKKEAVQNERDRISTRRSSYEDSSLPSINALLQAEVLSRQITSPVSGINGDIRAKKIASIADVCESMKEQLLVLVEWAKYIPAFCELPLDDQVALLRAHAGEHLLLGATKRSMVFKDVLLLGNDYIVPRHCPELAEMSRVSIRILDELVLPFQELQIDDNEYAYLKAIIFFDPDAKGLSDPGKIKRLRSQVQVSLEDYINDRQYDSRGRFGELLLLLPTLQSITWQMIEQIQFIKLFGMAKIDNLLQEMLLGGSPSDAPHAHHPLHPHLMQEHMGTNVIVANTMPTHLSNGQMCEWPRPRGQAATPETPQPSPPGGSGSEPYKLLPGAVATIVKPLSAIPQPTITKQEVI
Numbers without * were called inactive; i = inactive; u = inconclusive; x = not tested or not shown. Only part of the results is shown; count on the stated rates, not on these rows.

Ecoli growth	RanGTP-Impb inh	FGF22 binding	HNF4A DNA FP	Vif A3G	UCH37 DUB inh	MLL AF4-AF9 inh	canonical_smiles
x	1.8	i	0.6	-92%	x	52*	CC1=C/C(=C(\c2cc(C)c(O)c(Br)c2)c2ccccc2S(=O)(=O)O)C=C(Br)C1=O
x	22	x	-1.5	2%	x	x	Nc1c(S(=O)(=O)c2ccccc2)c2nc3ccccc3nc2n1/N=C/c1cccc(O)c1
0.66	2.0	i	1.4	-3%	3.1	-80	O=C(C1CCCCC1)N(CCN1CCCC1)c1nc2ccccc2s1
0.64	6.4	i	1.1	10%	2.4	15	O=C(O)CCCN=CC1=C(O)CNC1=O
0.64	5.2	i	-4.7	6%	0.1	4.0	CCN(CC)CCn1c(=O)n(-c2ccc(Cl)cc2)c(=O)c2c3c(sc21)CN(C)CC3
0.69	2.3	x	2.4	5%	0.5	x	O=C(CCC(=O)c1ccc(Br)cc1)Nc1cccc(C(F)(F)F)c1
0.66	3.7	x	-1.8	0%	2.9	x	CCOc1cc(C(=S)N2CCOCC2)ccc1O
x	x	i	2.9	x	x	6.6	COc1cccc(CN2CCC2(C)C(=O)Nc2cccc(NS(C)(=O)=O)c2)c1OC (stereo unspecified)
x	u	i	1.3	26%	x	4.2	N/C(=N\O)c1cccc(CS(=O)(=O)c2ccccn2)c1
0.71	-0.8	i	3.1	-3%	6.8	4.7	Cc1ccc2nc(NC(=O)CSc3nc(=O)n(CCN(C)C)c4c3CCCC4)sc2c1

Additional structures
Ecoli growth	RanGTP-Impb inh	FGF22 binding	HNF4A DNA FP	Vif A3G	UCH37 DUB inh	MLL AF4-AF9 inh	canonical_smiles
0.67	-1.4	i	4.3	x	5.5	-5.8	COc1cccc(NC(=O)CN2C(=O)CSc3nc(C)cc(C)c32)c1
0.67	-2.2	i	4.4	-1%	6.9	5.3	CC1CCc2c(sc3ncn(CC(=O)N=Nc4c(O)[nH]c5ccccc45)c(=O)c23)C1 (stereo unspecified)
0.66	3.6	i	-0.4	4%	0.7	1.4	CCN(CC)CCNC(=O)Cn1c(=O)c2cccn2c2ccc(F)cc21
0.74	-1.1	i	-1.0	-3%	1.7	-0.2	CC(=O)c1cccc(CN2CCN(Cc3ccc(C)cc3)C(CCO)C2)c1 (stereo unspecified)
0.67	x	i	-1.9	x	4.8	0.6	Cc1cnc(NC(=O)c2ccc(F)c(S(=O)(=O)N3CCOCC3)c2)s1
0.73	-0.2	x	-2.4	7%	-0.4	x	CCN(CC)C(=O)C(=O)c1cccn1-c1cccc(Cl)c1C#N
0.72	x	i	1.0	1%	1.2	5.8	CCOC(=O)C1C(C(C)=O)=C(c2ccccc2)c2ccccc2N1S(=O)(=O)C(F)(F)F (stereo unspecified)
x	x	i	-0.1	x	x	-2.4	CC1(C(=O)NCc2cccc(C(F)(F)F)c2)CCN1Cc1ccc2ccccc2c1 (stereo unspecified)
0.68	3.5	i	1.5	2%	6.6	2.0	Cc1cccc(Nc2nnc(SCC(=O)NCc3cccs3)s2)c1
x	1.2	i	1.0	1%	x	4.5	CC1(C)CC(=O)C/C(=N/Nc2nc3ccccc3s2)C1

Later entries.
Ecoli growth	RanGTP-Impb inh	FGF22 binding	HNF4A DNA FP	Vif A3G	UCH37 DUB inh	MLL AF4-AF9 inh	canonical_smiles
0.69	0.2	i	-3.8	x	-2.5	3.2	Cc1ccc(-c2nc(CN3CCCC(C(=O)N4CCOCC4)C3)c(C)o2)cc1 (stereo unspecified)
0.69	4.8	x	-4.1	-1%	5.6	x	O=C(CNC1CCCCCC1)Nc1ccc(S(=O)(=O)NC2CC2)cc1
x	x	i	5.0	x	-0.6	-0.5	C[C@@H]1COC(=O)[C@@H](CC(=O)OC(C)(C)C)C/C=C\C[C@H](CC(=O)N(CCO)Cc2ccccc2)C(=O)N1
0.66	u	x	3.2	-1%	2.1	x	CC1(C)OC(=O)N2CCc3ccccc3C21C (stereo unspecified)
0.7	x	i	-10	x	2.3	-0.8	Cc1ccc(S(=O)(=O)N2CCN(C(=O)C3CC(=O)N(c4ccc5c(c4)OCCO5)C3)CC2)cc1 (stereo unspecified)
0.72	x	x	1.6	0%	1.6	x	CCOc1ccc(Oc2cc(NC(=O)c3ccco3)cc([N+](=O)[O-])c2)cc1
0.69	x	x	-0.7	7%	0.1	-1.5	CN(C(=O)c1ccc(NC(=O)Cc2ccc(NC(=O)C3CCCN(C(=O)C4CCCCC4)C3)cc2)cc1)C1CCCC1 (stereo unspecified)
x	1.7	i	4.9	x	x	0.9	COc1ccc(OC)c(C(=O)N2CCC(n3nccc3NC(=O)CC(C)C)CC2)c1
0.65	-0.4	i	3.5	x	0.1	-4.5	COc1ccc(NC(=O)c2ccc(C)cc2)cc1
x	-0.1	x	3.7	-5%	x	x	CCC12CN3CCN(CC(C3)/C1=N\NC(=O)Nc1ccccc1)C2

Of the compounds above, these have an aryl thioether with sulfur outside any ring.
Ecoli growth	RanGTP-Impb inh	FGF22 binding	HNF4A DNA FP	Vif A3G	UCH37 DUB inh	MLL AF4-AF9 inh	canonical_smiles
0.71	-0.8	i	3.1	-3%	6.8	4.7	Cc1ccc2nc(NC(=O)CSc3nc(=O)n(CCN(C)C)c4c3CCCC4)sc2c1
0.68	3.5	i	1.5	2%	6.6	2.0	Cc1cccc(Nc2nnc(SCC(=O)NCc3cccs3)s2)c1

Carrying on.
Ecoli growth	RanGTP-Impb inh	FGF22 binding	HNF4A DNA FP	Vif A3G	UCH37 DUB inh	MLL AF4-AF9 inh	canonical_smiles
x	-1.6	x	-4.0	14%	x	x	COc1cc(/C=N/NC(=O)Cn2nc([N+](=O)[O-])cc2C)cc(Br)c1OCc1ccccc1
0.66	-0.4	i	1.1	8%	7.3	-11	O=C(COc1ccccc1Cl)NC(=S)Nc1ccc(CN2CCOCC2)cc1
x	x	i	2.3	x	2.6	-7.3	C[C@@H]1NC(=O)OC1c1ccco1 (stereo partly specified)
0.66	1.3	i	0.9	-2%	0.2	-0.1	Cc1cc(C)c(C#N)c(SCC(O)COc2ccc(Br)cc2)n1 (stereo unspecified)
x	x	i	0.4	x	x	-0.1	CNc1ccc(-c2cc(OC)ccc2OC)cn1
0.64	1.2	x	0.9	u	2.2	0.1	Cc1ccc(OCc2nc3ccccc3n2C)cc1
x	x	i	0.7	x	4.3	4.1	O=C1[C@H](Cc2ccccc2)NCC=CC[C@H](c2ccc(Cl)cc2)N1Cc1ccccc1
0.67	2.9	i	-1.1	-3%	4.4	1.3	CC(C)(C)c1ccc(C(=O)NNC(=O)Cc2ccccc2)cc1
0.7	x	i	0.8	x	1.3	5.2	O=C(Cc1cccc(NC(=O)C2CCN(C(=O)C3CCC3)CC2)c1)Nc1cccc(C(=O)N2CCCC2)c1
0.7	1.1	x	-0.7	-2%	-0.6	x	CCCCn1ccnc1C(=O)c1cc(S(=O)(=O)N2CCOCC2)ccc1C

Continued.
Ecoli growth	RanGTP-Impb inh	FGF22 binding	HNF4A DNA FP	Vif A3G	UCH37 DUB inh	MLL AF4-AF9 inh	canonical_smiles
0.68	3.9	i	0.4	u	3.1	-7.5	Cc1ccn2cc(CCNC(=O)C3CCCCC3)nc2c1
x	x	i	0.8	x	x	2.0	CC(C)C[C@H]1CNC(=S)N1CC1CCCN1C[C@H](CC(C)C)N1C[C@H](Cc2ccc(O)cc2)N(CC2CCCCCC2)C1=S (stereo partly specified)
0.76	u	x	-64	1%	6.4	14	CCCN1C(=O)c2cc(C(=O)Nc3ccc(OC)cc3OC)ccc2C1Nc1ccc(OC)cc1OC (stereo unspecified)
0.72	0.6	x	2.3	x	0.2	x	O=C1CC(c2c[nH]c3ccccc23)C(=O)N1c1ccccc1 (stereo unspecified)
0.7	6.3	x	-0.5	x	-2.2	x	Cc1ccc(C(=O)COC(=O)C(C)N2C(=O)C3C4C=CC(C4)C3C2=O)cc1 (stereo unspecified)
0.68	-1.0	x	-0.7	x	0.0	x	CCOC(=O)c1cc(-c2ccccc2)sc1NC(=O)CC
0.65	0.9	i	3.7	x	6.0	0.8	Cc1cc(C)cc(OCCNC(=O)CCc2ccccc2)c1
0.73	1.4	x	-0.2	-10%	-2.7	x	O=C(COc1cc2oc(=O)c3c(c2cc1Cl)CCC3)NCc1ccccn1
x	3.3	i	0.6	x	x	-3.1	CCOc1cc2ccccc2cc1C(=O)Nc1ccccn1
0.69	-1.9	x	3.6	16%	1.0	x	Cc1ccc(/C=C/C(=O)Nc2ccc(Oc3ccccc3)cc2)o1

Fetched one by one from above, 2 records:
Ecoli growth	RanGTP-Impb inh	FGF22 binding	HNF4A DNA FP	Vif A3G	UCH37 DUB inh	MLL AF4-AF9 inh	canonical_smiles
x	x	i	2.3	x	2.6	-7.3	C[C@@H]1NC(=O)OC1c1ccco1 (stereo partly specified)
0.73	-0.2	x	-2.4	7%	-0.4	x	CCN(CC)C(=O)C(=O)c1cccn1-c1cccc(Cl)c1C#N

Other structures
Ecoli growth	RanGTP-Impb inh	FGF22 binding	HNF4A DNA FP	Vif A3G	UCH37 DUB inh	MLL AF4-AF9 inh	canonical_smiles
0.65	1.8	i	2.0	x	1.2	-9.2	CCN(C(=O)COc1nc(C)cc(C)c1C#N)c1ccccc1
0.66	-1.9	x	-4.8	x	3.9	x	O=C(NCCN1CCOCC1)c1cc2cc([N+](=O)[O-])ccc2s1
0.73	3.6	x	3.6	15%	-30	x	Cc1nc(Nc2ccc3c(c2)OCCO3)c2nnn(Cc3ccccc3Cl)c2n1
0.69	x	i	-0.8	6%	-0.2	1.9	CC(=O)Nc1ccc(S(=O)(=O)N(C)CC(=O)OCC(=O)Nc2cc(C)on2)cc1
0.71	-0.2	i	1.7	3%	-3.1	-3.0	CCOc1ccc(C(=O)CCC(=O)NC(C)C(=O)OC)cc1 (stereo unspecified)
x	x	i	5.1	3%	x	-1.7	Cc1ccc([C@H]2N[C@]3(CCCN(Cc4ccc(Cl)cc4)C3=O)[C@H]3C(=O)N(C)C(=O)[C@@H]23)cc1
0.69	x	i	1.0	-5%	1.3	0.0	CC(C)NC(=O)c1ccc(Cl)cc1Cl
0.7	1.6	i	0.5	x	5.5	-1.0	N=C(c1ccc([N+](=O)[O-])cc1)N1CCCCC1
x	-1.7	x	-2.2	1%	2.9	x	C/C(=C\C(=O)c1ccc(Cl)cc1)NCc1ccc2c(c1)OCO2
0.69	-0.9	i	6.5	1%	3.6	-22	Cc1ccc(NC(=O)c2cccnc2)cc1S(=O)(=O)N1CCOCC1

Carrying on.
Ecoli growth	RanGTP-Impb inh	FGF22 binding	HNF4A DNA FP	Vif A3G	UCH37 DUB inh	MLL AF4-AF9 inh	canonical_smiles
0.69	1.8	i	2.4	17%	6.5	-1.2	O=C(O)c1nccnc1C(=O)Nc1ccccc1-c1ccccc1
0.72	-1.0	i	5.1	x	5.7	1.8	COc1ccc(-c2csc(NC(C)c3nc4cc(Cl)c(N5CCCCC5)cc4n3CCCO)n2)cc1 (stereo unspecified)
0.67	0.8	i	3.5	x	2.6	-2.0	O=C(Cc1ccc(Cl)cc1)N1CCc2ccccc2C1
0.47*	2.1	x	-1.2	3%	-7.4	x	Cc1cccc(C(=O)CC(=O)c2cc(Cl)ccc2O)c1
0.7	0.8	i	2.1	x	2.1	-0.6	Cc1oc(-c2ccc(Cl)cc2)nc1CS(=O)CC(=O)NC1CC1 (stereo unspecified)
x	x	i	2.1	1%	x	-1.7	Cc1ccc(S(=O)(=O)N2C[C@@H](C)[C@]3(C2)[C@H](O)[C@H](OC(=O)NC2CC2)C[C@H]2C(=O)N(c4ccccc4)C(=O)[C@H]23)cc1
